Cruzain noTriton: inhibitors of Trypanosoma cruzi cruzain without detergent; P25779; purified cruzain, Z-FR-AMC fluorescence, no detergent; Potency, µM, for the others: max response, negative = inhibition, actives largely listed as inhibitors; hit rate 2.3% among 200,000; AID 1476; active = well fitted curve in the direction sought with a large enough effect; inconclusive = small, poorly fitted or top-dose-only effect, or another doubt; inactive = no such curve, though single readings can be large; an effect the other way counts as inactive or inconclusive;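 note: plate controls were enzyme without inhibitor for no effect and buffer without enzyme for full effect; nearly all actives have a fitted effect of over 40% in size; top concentration of the series not given in the record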
Target sequence (P25779 123-467 limits assumed): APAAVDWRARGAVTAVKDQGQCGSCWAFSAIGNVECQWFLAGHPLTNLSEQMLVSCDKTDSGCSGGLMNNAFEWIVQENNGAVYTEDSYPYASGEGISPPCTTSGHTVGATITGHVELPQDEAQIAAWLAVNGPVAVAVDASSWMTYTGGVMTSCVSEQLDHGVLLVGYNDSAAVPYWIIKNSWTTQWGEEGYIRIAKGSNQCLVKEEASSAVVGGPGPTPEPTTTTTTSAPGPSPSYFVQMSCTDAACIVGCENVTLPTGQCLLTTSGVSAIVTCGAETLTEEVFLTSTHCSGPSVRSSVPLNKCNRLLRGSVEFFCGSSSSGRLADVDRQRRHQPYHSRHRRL
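Purified cruzain at 1.5 nM, pre-incubated 15 min with compound at room temperature in 100 mM sodium acetate pH 5.5, 5 mM DTT, 0.00005% Triton X-100. Reaction started with 2 uM Z-FR-AMC; AMC fluorescence increase over 60 s gives rate.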
Marburg entry inh: inhibitors of Marburg virus binding or cell entry. hit rate 1.8% among 300,000. AID 540276. Potency, µM (top dose mostly 37.8 µM), without a hit: at the top dose activity change, negative = inhibition, actives largely listed as inhibitors. Marburg virus pseudotyped entry inhibition, cell reporter; control for the full effect not named in the record; about a third of the inactives were read at about 46 µM; active = well fitted inhibition curve with a large enough effect; inconclusive = small, poorly fitted or top-dose-only effect, or effect the other way; inactive = flat fitted curve, though single readings scatter; tested in HEK293 cells; about a fifth of its hits are not listed in these tables; note: % is set by controls: 0 for no effect and ±100 for the full control effect; luciferase read-out
StopGo reporter: lowers the luciferase signal of an FMDV 2A StopGo reporter; hit rate 1.2% among 410,000; Potency, µM (doses to about 57.9 µM), without a hit: at the top dose signal change, negative = less light; AID 1159524; human cells with a luciferase reporter of 2A StopGo recoding; control for the full effect not named in the record; active = well fitted falling curve with a large enough effect; inconclusive = small, poorly fitted or top-dose-only effect; inactive = no such curve, though single readings can be large or run the other way; tested in HEK293T cells; note: % is set by controls: 0 for no effect and ±100 for the full control effect; nearly all actives have a fitted effect of over 45% in size; luciferase light after 4 h
Cruzain Triton: inhibitors of Trypanosoma cruzi cruzain with detergent; P25779; purified cruzain, Z-FR-AMC fluorescence, 0.01% Triton; Potency, µM, inactives show max response, negative = inhibition, usual class: inhibitors; hit rate 0.43% among 200,000; active = well fitted curve in the direction sought with a large enough effect; inconclusive = small, poorly fitted or top-dose-only effect, or another doubt; inactive = no such curve, though single readings can be large; an effect the other way counts as inactive or inconclusive;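 note: plate controls were neutral wells for no effect and buffer without enzyme for full effect; nearly all actives have a fitted effect of over 40% in size; top concentration of the series not given in the record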
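Enzyme 1.5 nM, Z-FR-AMC 2 uM, NaOAc 100 mM pH 5.5, DTT 5 mM, Triton X-100 0.01%; 15 min RT compound preincubation; kinetic ex360/em450, 60 s delta.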
SARS PLpro yeast: inhibitors of SARS-CoV papain-like protease in yeast; hit rate 0.19% among 330,000; S. cerevisiae expressing SARS-CoV PLpro, growth rescue; control for the full effect not named in the record; Potency, µM (doses to about 32.9 µM), for the others: at the top dose activity, positive = growth rescue; AID 485353; note: 0% is about no effect; nearly all actives have a fitted effect of over 55% in size; growth read by luminescence after 48 h
RE007 growth inh: less growth of the S. pombe RE007 Vpr strain | S. pombe RE007 Vpr strain, BacTiter-Glo ATP luminescence, 24 h; control for the full effect not named in the record | Potency, µM (top dose mostly 92.2 µM), for the others: at the top dose activity change, negative = less growth | hit rate 0.21% among 360,000 | AID 651644; active = well fitted falling curve with a large enough effect; inconclusive = small, poorly fitted or top-dose-only effect; inactive = no such curve, though single readings can be large or run the other way;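 note: % is set by controls: 0 for no effect and ±100 for the full control effect; nearly all actives have a fitted effect of over 50% in size; the assay follows cell death caused by Vpr and the record does not say whether a fall means rescue or toxicity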
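Fission yeast strain RE007, carrying one chromosomally integrated HIV-1 vpr copy, was seeded at OD 0.01 in PMG+AL medium with 23 nL pinned compound. After 24 h at 30 °C and 99% humidity, viability was read by BacTiter-Glo luminescence.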
NS1 function inh: influenza NS1 inhibition; S. cerevisiae slowed by influenza A NS1, growth recovery by OD600; Potency, µM (top dose mostly 46.1 µM), for inactives: top-dose activity, positive = more growth; hit rate 0.4% among 270,000; AID 2326; note: actives are rising curves; nearly all actives have a fitted effect of over 50% in size
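Recovery from NS1-induced slow growth read by OD600 in budding yeast switched to galactose assay medium (pH 6.0, -URA) at 1:100 dilution. Compound 23 nl per well; the matching strain lacking NS1 serves as control.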
Lassa entry inh: Lassa virus entry inhibition. Lassa virus pseudotype entry inhibition, cell reporter; control for the full effect not named in the record. Potency, µM (top dose mostly 37.9 µM), without a hit: at the highest dose activity change, negative = inhibition, actives largely listed as inhibitors. hit rate 1.2% among 300,000. AID 540256; active means well fitted inhibition curve with a large enough effect; inconclusive means small, poorly fitted or top-dose-only effect, or effect the other way; inactive means flat fitted curve, though single readings scatter; tested in HEK293 cells; note: % is set by controls: 0 for no effect and ±100 for the full control effect; nearly all actives have a fitted effect of over 50% in size; luciferase read-out
* hit, by the source's call; ? = inconclusive; / = no result given; & = joins results of further samples; [ ] = dose if it differs, or a comment. Unless noted, calls come from the whole dose curve; as a rule, active means well fitted rising curve with a large enough effect; inconclusive means small, poorly fitted or top-dose-only effect; inactive means no such curve, though single readings can be large or run the other way. Potency is the fitted concentration of half-maximal effect. This is a random part of the collection, and some 4.7% of all compounds hit somewhere here.

SMILES	Cruzain noTriton	Marburg entry inh	StopGo reporter	Cruzain Triton	SARS PLpro yeast	RE007 growth inh	NS1 function inh	Lassa entry inh
COc1ccc(N2CCN(S(=O)(=O)CCNC(=O)c3ccc(Br)o3)CC2)cc1	/	/	-9%	/	2%	-4%	0%	/
CCOC(=O)c1ccc(NC(=O)CCNS(=O)(=O)c2ccc3c(c2)oc(=O)n3C)cc1	14%	13%	15%	-2.8%	1%	6%	3%	-3%
O=C(Nc1c2c(nc3ccccc13)CCCC2)c1ccccc1Cl	-13%	?	-6%	0.8%	7%	-4%	12%	-6%
CN(Cc1ccc(OC(F)F)cc1)C(=O)c1ccccc1Sc1ccccc1C#N	/	?	-17%	/	/	33%	/	?
COc1ccccc1-c1nc2n(n1)C(c1cccs1)C(C(=O)Nc1cccnc1)=C(C)N2 (stereo not given)	?	-19%&-19%	-5%	11%	0%	6%	9%	12%
O=C(COC(=O)c1ccc(-c2ccccc2)cc1)Nc1ccccc1-c1ccccc1	-13%	?	0%	-3.1%	-1%	-5%	18%	4%
CC(=O)Cc1nsc(Nc2cccc(C)c2)n1	/	?	23%	/	-1%	-13%	/	11%
CCC[N+](CC#CCO)(CC#Cc1ccccc1)CCC	/	5%	-7%	/	0%	-2%	3%	14%
COc1cc(NC(=O)CSCc2ccccc2)c(C(=O)O)cc1OC	/	9%	0%	/	11%	8%	-11%	-7%
O=C(CN1C(=O)C2CCCCC2C1=O)Nc1nc(-c2ccc(F)cc2)cs1 (stereo not given)	/	6%	?	/	0%	?	/	-28%[46.1 µM]
C=CCn1c(SCC(=O)NC(=O)NCC(C)C)nnc1C1CCCCC1	12%	14%	-21%	1.6%	9%	?	2%	10%
COC(=O)c1cc(-c2ccccc2)sc1NC(=O)c1cc(C)on1	-28%	/	/	0.9%	20%	/	2%	/
O=C(O)c1cccc(N2C(=O)c3ccc4c5c(ccc(c35)C2=O)C(=O)N(c2cccc(C(=O)O)c2)C4=O)c1	/	13%[46.1 µM]	-18%	/	0%	-14%	10%	-1%
Cc1cc(NC(=O)COC(=O)c2ccccc2S(=O)(=O)N(C)c2ccccc2)no1	/	?	?	/	0%	7%	/	2.5µM*
CCOc1cc(OCC)cc(C(=O)O)c1	-1%	20%	-12%	8.9%	-2%	-1%	3%	7%
NC1=NC(=O)C(Cc2ccc(F)cc2)S1 (stereo not given)	/	4%[46.1 µM]	15%	/	-1%	-19%	7%	-1%[46.1 µM]
CCCCCOc1ccc2oc(=O)c3c(c2c1)CCCN3C(=O)CN1CCCC(C(=O)OCC)C1 (stereo not given)	?	?	?	-1.6%	-18%	-18%	-41%	9.2µM*
CCN(CC)c1ccc(/C=c2\sc3nc4ccccc4n3c2=O)c(O)c1	/	?	-21%	/	0%	1%	/	15%[46.1 µM]
COc1cc(C)c(C(C)C)cc1S(=O)(=O)n1ccnc1	-3%	13%	65%[activator]	1.1%	10%	2%	-5%	-9%
CCOC(=O)Nc1cc(C(=O)OC)cc(C(=O)OC)c1	-3%	-3%	-21%	-0.4%	-23%	1%	2%	14%
COc1ccccc1C(=O)Nc1ccccc1C(=O)OCc1cc(=O)n2ccsc2n1	7%	/	-20%	1.0%	/	/	/	16%[46.1 µM]
O=C(c1cccnc1)N1CCN(c2c(Cl)cccc2[N+](=O)[O-])CC1	-9%	-14%	0%	2.2%	0%	-3%	2%	3%
CC1CCN(c2ccc(NC(=O)c3ccccc3[N+](=O)[O-])cc2)CC1	/	?	2%	/	0%	8%	3%	0%[46.1 µM]
CCc1ccc(N(CC(=O)NC2CCCC2)S(=O)(=O)c2c(C)noc2C)cc1	0%	/	-25%	-0.1%	5%	-12%	-17%	/
CC(=O)Nc1ccc(S(=O)(=O)NCCC(=O)OCc2nc(N)nc(Nc3ccccc3C)n2)cc1	/	2%	-5%	/	3%	0%	/	-1%
CCn1cc(Cl)c(C(=O)Nc2cccc(CN3CCOCC3)c2)n1	/	/	29%	/	2%	-2%	13%	/
COc1cccc(NC(=O)c2c(C)cc(C)cc2CC(C)(C)C(=O)O)c1	/	3%[46.1 µM]	-12%	/	3%	2%	5%	4%[46.1 µM]
CC(Sc1nnc(COc2ccc(Cl)cc2)n1-c1ccccc1)C(=O)O (stereo not given)	/	?	-3%	/	1%	8%	20%	17%[46.1 µM]
Oc1ccccc1N=Cc1ccc[nH]1	-12%	10%	-14%	1.6%	-13%	?	-176%	0%
O=C(CSc1nnc(Cn2c(=O)sc3ccccc32)n1CCc1ccccc1)N1CCOCC1	?	19%	20%	2.7%	1%	5%	-3%	2%
CN(CCS(=O)(=O)c1ccc(Cl)cc1)Cc1cccnc1	/	-6%[46.1 µM]	2%	/	-8%	-4%	-3%	1%[46.1 µM]
CC(=O)c1cccc(NC(=O)CCS(=O)(=O)c2ccc(Br)s2)c1	8%	?	-11%&-12%	-3.5%	-1%	25%	/	3%&24%[46.1 µM]
CCN(CC)S(=O)(=O)c1ccc(C(=O)OCCN2C(=O)CCC2=O)cc1	-10%	2%	-11%	2.8%	2%	-12%	0%	/
Cc1cccc(NC(=O)CSCc2nc3c(nnn3Cc3ccc(F)cc3)c(=O)[nH]2)c1C	/	-16%[46.1 µM]	-5%	/	-1%	0%	-1%	4%
COc1ccccc1-c1c(C)oc2c(CN3CCN(CCO)CC3)c(O)ccc2c1=O	-3%	-11%	0%	0.2%	-1%	8%	9%	15%
CSC1=N/C(=C\c2cccc(F)c2)C(=O)S1	-13%	14%	-12%	-1.8%	-8%	0%	-117%	-8%
Cc1ccc(C)c(NC(=O)C2CCC(C)(C(=O)O)C2(C)C)c1 (stereo not given)	10%	1%	0%	4.8%	0%	11%	5%	11%
CC(=O)c1ccc(S(=O)(=O)N(C)C(C)CCc2ccco2)cc1 (stereo not given)	/	/	-3%	/	-1%	-6%	-6%	/
CCc1ccccc1NC(=O)Cn1c(=O)c2cccn2c2ccc(F)cc21	?	/	-5%	-1.9%	/	/	/	13%[46.1 µM]
CC(C)Sc1nc(-c2ccccc2)cc(=O)[nH]1	4%	7%	-24%	0.2%	8%	24%	-1%	2%
CN(C)C(=O)Oc1ccc(OCc2nc3ccccc3[nH]2)cc1	0%	?	-46%	-1.4%	-61%	?	-4%	9.2µM*
CCc1nc(SCC(=O)NCCc2ccccc2)c2c(=O)n(C)c(=O)n(C)c2n1	/	/	-7%	/	0%	0%	3%	/
O=C(/C=C\Nc1ccccn1)c1ccc(Cl)cc1	?	6.5µM*	/	-2.4%	-11%	-19%	-11%	?
O=c1cc(CO)oc(C(Nc2cccc(C(F)(F)F)c2)c2ccccn2)c1O (stereo not given)	/	/	-20%	/	29%	-7%	-2%	/
CCCCNC(=O)c1ccc(NC(=O)C2CCCO2)cc1 (stereo not given)	-18%	14%	42%[activator]	0.2%	0%	8%	-9%	3%
O=C(CCC(=O)N1CCN(Cc2ccccc2)CC1)Nc1nnc(C2CCCCC2)s1	/	/	-15%	/	-2%	4%	-6%	/
COC(=O)c1ccc(/C=N/N2CCN(Cc3ccc(C)cc3C)CC2)cc1	-4%	7%	?	-5.5%	-1%	-7%	-14%	0%
CCN(CC)Cc1cc(Nc2c3ccccc3nc3c4ccccc4n(C)c23)cc(CN(CC)CC)c1O	/	?	-18%	/	/	-16%	/	11µM*
CC1=C(C(=O)c2ccccc2)C(c2ccc(O)cc2)NC(=S)N1 (stereo not given)	/	/	-15%	/	1%	18%	4%	/
C=CCN1N=C(c2ccc(Cl)s2)CSC1=O	0%	?	-4%	-5.3%	-5%	-10%	0%	0%
COc1ccc(CC(=O)Nc2cccc(S(=O)(=O)N3CCCCCC3)c2)cc1OC	1%	?	?	-3.3%	-16%	8%	-10%	4.5µM*
COc1cc(C2C(=O)N(C3CCC(C)CC3)CC(=O)N2CCc2ccc(Cl)cc2)ccc1OC(C)C (stereo not given)	2%	/	-14%	0.3%	/	/	/	-7%[46.1 µM]
Cc1ccsc1/C=N/N1CCN(Cc2ccccc2)CC1	/	?	0%	/	1%	-14%	/	?
COc1ccc(C2/C(=C(/O)c3ccc(C)cc3)C(=O)C(=O)N2CCCN2CCOCC2)cc1 (stereo not given)	/	/	-2%	/	1%	1%	-7%	/
CC1(C)CC2(C)OCCN2C(=S)N1 (stereo not given)	/	?	-1%&13%	/	1%	1%&-4%	10%	25%
CC1CCCC(NC(=O)C2CCC(CNc3c(N4CCCCC4)c(=O)c3=O)CC2)C1C (stereo not given)	/	-1%[46.1 µM]	-13%	/	-3%	7%	0%	11%[46.1 µM]
O=C(CN1CCc2cc3c(cc2C1)OCCCO3)Nc1c(F)cccc1F	/	/	-27%	/	1%	25%	-15%	/
O=C1NC(=O)N(c2ccc(Cl)cc2)C(=O)/C1=C\c1ccc(Sc2nc3ccccc3[nH]2)o1	22%	?	-15%	-21%	4%	-19%	7%	?
Cn1c(Cn2nnc3ccccc32)nnc1SCC(N)=O	-3%	-2%	1%	4.2%	13%	-9%	5%	35%
CCCc1c(O)c2ccccc2[nH]c1=O	4%	12%	-18%	3.2%	1%	-6%	2%	8%

(further entries)
SMILES	Cruzain noTriton	Marburg entry inh	StopGo reporter	Cruzain Triton	SARS PLpro yeast	RE007 growth inh	NS1 function inh	Lassa entry inh
Cc1cc(C(=O)CSc2nnc(N)s2)c(C)n1CCc1ccc(F)cc1	16µM*	-18%	-4%	3.4%	-4%	0%	-12%	-23%
CCOC(=O)N1CCN(C(=O)c2ccc(CS(=O)(=O)c3ccccc3OC)o2)CC1	6%	-13%	-19%	2.1%	1%	2%	18%	2%
C=CCn1c(SCCC(=O)O)nnc1-c1cccs1	3%	-2%	-16%	0.6%	0%	3%	0%	12%
CN(c1ccc(C(=O)NCc2cccnc2)cc1)S(=O)(=O)c1ccc(Cl)cc1	/	-12%	?	/	-1%	3%	-12%	?
O=C(COc1ccccc1)Nc1ccc(CN2CCCCC2)cc1	/	?	-11%	/	0%	13%	-3%	2%[46.1 µM]

High-throughput results (PubChem)
